Screens: PubChem, several laboratories
MT1-MMP act inh – MT1-MMP (human) activation inhibition; P50281; HT1080 RFP-PRO-GFP cells, GFP/RFP ratio fluorescence, overnight; percent of plate control window, DMSO zero; GFP/RFP ratio change, % at 20 µM; hit rate 0.061% among 360,000; AID 651647;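 active = GFP/RFP ratio change of at least 30% with cell ATP level not reduced by more than half and red fluorescence within 50% of control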; note: strong numbers were not always called active
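Assay system – RFP-PRO-GFP reporter HT1080 cells · Compound dosing – single dose of 20 µM compound, 1% DMSO final · Incubation – overnight compound exposure at 37 °C · Measure – GFP/RFP fluorescence ratio · Benchmarks – DMSO wells and RFP-L50D-GFP cells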
PABP FP inh – PABP-poly(A) binding inhibition; PABP-poly(A) RNA binding, fluorescence polarization; inhibition, % at 35 µM; hit rate 1% among 290,000; AID 2014;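 active = 50% or more with normal probe brightness, or confirmed in later tests; inconclusive = above 50% with abnormal brightness, or retests that disagree; inactive = below 50% or failed in later tests; about a fifth of its hits are not listed in these tables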;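 note: calls also rest on retests at 20 µM and on dose response follow-up; controls were probe without protein and protein plus probe with vehicle; some compounds called inactive have numbers as strong as hits; many hits fall short of the cut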
Target sequence (P11940 whole entry, looked up): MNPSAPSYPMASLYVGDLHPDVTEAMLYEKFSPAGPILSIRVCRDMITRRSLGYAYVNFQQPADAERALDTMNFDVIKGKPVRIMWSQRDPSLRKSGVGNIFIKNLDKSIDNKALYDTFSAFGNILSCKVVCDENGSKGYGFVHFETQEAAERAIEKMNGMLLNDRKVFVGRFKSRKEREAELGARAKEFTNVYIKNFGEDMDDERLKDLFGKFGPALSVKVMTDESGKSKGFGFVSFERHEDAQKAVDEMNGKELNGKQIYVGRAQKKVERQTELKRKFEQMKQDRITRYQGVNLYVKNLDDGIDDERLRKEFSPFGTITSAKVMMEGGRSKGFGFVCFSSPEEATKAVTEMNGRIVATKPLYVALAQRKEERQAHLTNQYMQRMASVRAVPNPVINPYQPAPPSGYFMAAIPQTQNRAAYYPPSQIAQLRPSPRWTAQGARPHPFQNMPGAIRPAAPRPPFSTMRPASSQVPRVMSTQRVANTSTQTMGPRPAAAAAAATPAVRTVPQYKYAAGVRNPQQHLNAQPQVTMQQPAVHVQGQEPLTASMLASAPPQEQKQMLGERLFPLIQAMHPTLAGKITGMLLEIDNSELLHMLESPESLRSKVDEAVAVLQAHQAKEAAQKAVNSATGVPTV
HIV Env fusion – blocks HIV Env-driven cell-cell fusion; inhibition, % at 12.3 µM; AID 651610; hit rate 1.1% among 360,000; HeLa-JRFL Env/CEM21 cell fusion, luciferase;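 active = mean replicate inhibition score of at least 50 and every replicate individually at or above 50; inconclusive = only one of the two criteria met; inactive = mean below 50 and not all replicates reaching 50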;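 note: 0% = plate neutral controls and 100% = maraviroc near 300 nM; one replicate is shown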
eIF4H inh – inhibitors of RNA binding by human eIF4H. Q15056. eIF4H fluorescence polarization binding assay. inhibition, % at 35 µM. hit rate 0.94% among 290,000. AID 2012;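 active = 50% or more with normal probe brightness, or confirmed in later tests; inconclusive = above 50% with abnormal brightness, or retests that disagree; inactive = below 50% or failed in later tests; about a fifth of its hits are not listed in these tables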;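 note: calls also rest on retests at 20 µM and on dose response follow-up; 0% = protein and probe with vehicle and 100% = probe without protein; strong numbers were not always called active; many hits fall short of the cut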
Yeast UUG start – yeast start codon fidelity modulation. hit rate 0.13% among 350,000. S. cerevisiae UUG-firefly luciferase reporter, luminescence/redox ratio. activity score, % at 18.7 µM;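 active = replicate mean at a twofold rise or more, about +100% in these data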;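 note: firefly luciferase made from a UUG start codon reports start codon fidelity; reporter light over untreated wells divided by growth signal over untreated wells; some hits fall short of that in this replicate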
Rce1 inh – yeast Ras-converting enzyme inhibition; yeast membranes, quenched prenylated peptide cleavage fluorescence; calls only; hit rate 0.27% among 290,000; AID 2563; Q03530;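 active = fall in fluorescence gain of 50% or more versus controls, with final raw signal at or below 3038400; inconclusive = same 50% fall but final raw signal above 3038400; inactive = fall in fluorescence gain under 50%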;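 note: plate controls were neutral control wells for no effect and wells lacking membranes for full effect; tested at 10 µM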
CSC inhib – blocks cancer stem cells; hit rate 1.1% among 300,000; inhibition, % at 7.5 µM; cancer stem cell-like cells viability, luminescence; AID 2717;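 active = mean at 75% or more and at least half the replicates too; inconclusive = mean and replicates disagree; tested in HMLE shEcad cells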;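 note: 0% = median of negative and 100% = median of positive control wells; the first replicate is given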
eIF4H inh retest – further read-out of eIF4H inh, marked with its call; inhibition, %; compound at 20 µM; confirmation average;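 mean of two retest wells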
PABP FP inh retest – also measured in PABP FP inh; calls as there; inhibition, %; compound at 20 µM; confirmation repeats;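 mean of two retest wells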
MT1-MMP act inh RFP – second read-out of MT1-MMP act inh, no call of its own (marks repeat the call); RFP signal change, %; measured here: RFP expression control read;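 0 = vehicle wells; hits needed this value within 50% of zero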
Active calls of the source: *; i = inactive; ? = inconclusive; . = no result given. Only part of the results is shown (hit frequency here may not be typical).

SMILES | MT1-MMP act inh | MT1-MMP act inh RFP | PABP FP inh | HIV Env fusion | eIF4H inh | Yeast UUG start | Rce1 inh | CSC inhib | others
O=C(CC(=O)Nc1ccccc1F)Nc1ccccc1F | 1 | 1 | -1 | 7 | 7 | -11 | i | .
CC1CCc2nc3ccccc3c(C(=O)OCC(=O)NC3CCS(=O)(=O)C3)c2C1 (stereo not given) | -2 | -1 | 6 | -26 | -4 | . | i | -12
COc1ccc(CNC(=O)c2ccc3c(c2)N(C)CCS3)cc1 | 1 | -3 | 8 | -25 | 1 | -11 | i | 4
Cc1ccc(O)c(NC(=O)c2cc(-c3ccc(F)cc3)on2)c1 | 10 | 1 | 0 | 16 | -9 | -19 | i | -4
O=C(COC(=O)C1CC2C=CC1C2)Nc1cccc(S(=O)(=O)N2CCCCC2)c1 (stereo not given) | 8 | 4 | -3 | -7 | 4 | -1 | i | -4
NS(=O)(=O)c1ccc(NC(=O)CCCC(=O)O)cc1 | 2 | 6 | -10 | -4 | -4 | . | i | 0
Cc1ccc(-c2nn(-c3cc(Cl)ccc3[N+](=O)[O-])c(=O)c3ccccc23)cc1 | -1 | -6 | -2 | . | 0 | -24 | i | .
CCOc1ccc(NS(=O)(=O)c2ccc(C(=O)NCc3ccccn3)cc2)cc1 | -2 | -6 | . | -9 | . | -27 | i | -7
O=c1c2cn[nH]c2[nH]c(=S)n1-c1cccc2ccccc12 | -9 | 2 | 4 | 17 | 5 | -24 | i | -3
C=CCNCCOCCOc1ccc(Cl)cc1C(C)(C)C | -7 | -1 | 2 | 12 | 27 | . | i | 18
CC(C)(C)C(=O)Nc1ccc(S(=O)(=O)c2ccc(NC(=O)C(C)(C)C)cc2)cc1 | 1 | 2 | -2 | . | -9 | -2 | i | 1
COc1ccc(-n2c(SCC(=O)Nc3cccc4ccccc34)nc(O)cc2=O)cc1 | -1 | -4 | 10 | 2 | 8 | -8 | i | -10
Oc1c(Br)cc(/C=N/n2c(-c3ccccc3)n[nH]c2=S)cc1Br | 0 | -9 | 33 | 5 | -8 | -19 | i | .
CCCN1C(=O)NC2(O)C(=O)c3ccccc3C12O (stereo not given) | 1 | -1 | 2 | . | 4 | -9 | i | .
C=CCn1c(SCC(=O)N2CCOCC2)nc2c([nH]c3ccccc32)c1=O | 3 | 0 | 14 | -14 | -7 | -17 | i | 1
CCOC(=O)CSC1=C(C#N)C(c2ccccc2OC)CC(=O)N1 (stereo not given) | -7 | -14 | -2 | -22 | -7 | -12 | i | 39
CCc1ccc2nc(SCC(=O)Nc3ccccc3N3CCOCC3)c(C#N)cc2c1 | -45 | -14 | -3 | -26 | -2 | . | i | ?
Oc1ccc(C(c2nnnn2CCc2ccccc2)N2CCN(c3nc4ccccc4s3)CC2)cc1 (stereo not given) | -7 | -10 | 1 | -40 | -7 | -14 | i | 19
COc1ccccc1N1CCN(S(=O)(=O)CCNC(=O)C2CCCC2)CC1 | 4 | 2 | . | -13 | . | -11 | i | 2
COCCNc1nnc(SCC(=O)Nc2sc3c(c2C(=O)c2ccccc2)CCCC3)s1 | -6 | -13 | 26 | 24 | 2 | . | i | -2
Cc1csc(NC(=O)CSc2nc(=O)cc(N)n2-c2ccc(F)cc2)n1 | 3 | 0 | 11 | -2 | 3 | -10 | i | -10
O=S(=O)(c1ccc(OCC2CO2)cc1)c1ccc(OCC2CO2)cc1 (stereo not given) | -10 | -4 | 6 | 15 | -8 | . | i | 15
CC[C@@H]1C=C(C(=O)O)[C@H](c2ccc(OC)c(OC)c2)N1S(=O)(=O)c1ccc(C)cc1 | 0 | 6 | . | -17 | . | -11 | . | .
O=C(NCc1cccc(F)c1F)C1CCC(=O)N(C2CC2)C1 (stereo not given) | 4 | 0 | 15 | 1 | -7 | -3 | i | 0
CC(NS(=O)(=O)OCC(Cl)(Cl)Cl)c1ccc(Br)cc1 (stereo not given) | 2 | -1 | 2 | . | 4 | -8 | i | 9
OCCN(Cc1ccccc1)CC(O)COc1ccc2c(c1)OCO2 (stereo not given) | 3 | 4 | -3 | 13 | 11 | 4 | i | -5
Cc1ccc(NC(=O)CSc2nnc(COc3ccccc3C)o2)cc1 | 1 | 1 | 0 | 3 | 1 | . | i | -9
Cc1ccc(C(=O)c2cc([N+](=O)[O-])ccc2N2CCOCC2)c(C)c1 | 9 | -5 | 2 | . | -8 | . | i | 57
Cc1c(C(=O)Nc2ccc(Oc3ccccc3)cc2)sc2nc3n(c(=O)c12)CCC3 | -6 | -21 | 6 | . | -3 | . | i | .
Cc1cccc(N(CC(=O)NC(C)C)C(=O)c2ccc(N3CCCC3)nc2)c1 | 0 | 4 | -1 | 7 | 0 | . | i | -8
CC(C)NC(=O)c1ccccc1NC(=O)CN(c1ccc2c(c1)OCO2)S(C)(=O)=O | 1 | 2 | -4 | . | 3 | -6 | i | 6
COc1ccc(-n2nnnc2SCC(=O)N2CCOCC2)cc1 | 0 | 6 | -14 | -8 | 5 | 0 | ? | -16
Fc1ccc(OCCOCCOc2cccc3[nH]ccc23)cc1 | 5 | 1 | -6 | -5 | -4 | -14 | i | -13
CSc1ccc2c(c1)C(N1CCN(C)CC1)Cc1ccc(F)cc1S2 (stereo not given) | -17 | -14 | . | 6 | . | -22 | i | 41
C1COCCNCCOCCOCCN1 | -6 | -13 | -3 | 8 | -2 | -15 | i | -6
COC(=O)c1cc(NC(=O)c2cccs2)ccc1N1CCOCC1 | 9 | 4 | 11 | -1 | -1 | . | i | -17
COc1c(-c2ccc(O)c(O)c2)oc2cc(O)cc(O)c2c1=O | 0 | -12 | 17 | . | 6 | -13 | i | -8
Cc1[nH]c(=S)[nH]c(=O)c1Cc1ccc(OCC(C)C)cc1 | 4 | 3 | 9 | 10 | 7 | . | i | 13
CC1(C(=O)NCc2cccc(Cl)c2)Cc2c(-c3cccc(C(N)=O)c3)ccnc2O1 (stereo not given) | 0 | -4 | . | -19 | . | -19 | . | .
CC(C)(C)c1ccc(C(=O)NCCCN2CCN(CCCNC(=O)c3ccc(C(C)(C)C)cc3)CC2)cc1 | -33 | -30 | 12 | 30 | -3 | . | i | 102*
CS(=O)(=O)N1CCCC(C(=O)NCCCN2CCN(Cc3ccccc3)CC2)C1 (stereo not given) | 6 | 1 | 2 | . | -2 | -14 | i | -10
O=C(O)c1ccc(N2CCCCCC2)c(N2C(=O)c3ccccc3C2=O)c1 | 2 | 3 | 0 | . | -6 | -11 | i | 3
Cc1cc(C)c(S(=O)(=O)Nc2ccc(OCC(=O)O)cc2)c(C)c1 | 0 | 6 | 11 | -12 | 5 | -9 | i | -11
O=C(COC(=O)c1ccccc1Br)NCCc1ccc(F)cc1 | -3 | 2 | -5 | . | -4 | . | i | -4
Cc1c(C(=O)Nc2ccccc2)sc2nc(-c3ccccc3)cn12 | 8 | -3 | 3 | -67 | -8 | -13 | . | 35
CN(C(=O)CSc1nccc(=O)[nH]1)C1CCCCC1 | 2 | 3 | . | 1 | . | -3 | . | 10
CC1Cc2nc(SCC(=O)NCC3CCCO3)n(C)c(=O)c2S1 (stereo not given) | 0 | -3 | 4 | 4 | -7 | -6 | i | -7
O=C(N1CCOCC1)N(CCN1CCOCC1)Cc1cccc2ccccc12 | 3 | 2 | 1 | . | -9 | -20 | i | -8
COc1ccc(OC)c(/C=N/NC(=O)CCc2ccc(O)c(O)c2)c1 | 5 | -2 | 71* | . | 21* | . | i | 8 | eIF4H inh retest=102*;PABP FP inh retest=84*
CN1C(=O)c2cccc3c(S(=O)(=O)NCCc4ccccc4)ccc1c23 | 1 | 1 | 10 | -4 | 2 | -28 | i | -6
Cc1nn(C2CCS(=O)(=O)C2)c(Cl)c1/C=C/C(=O)OCC(=O)N(C)C (stereo not given) | -1 | -2 | 1 | -1 | -1 | -8 | i | -6
CC(C)(C)C(=O)CSc1ncnc2sc3c(c12)CCC3 | 1 | -4 | 6 | 23 | -4 | . | i | -10
COC(=O)c1ccc2c(c1)c(-c1ccccc1)c(-c1ccccc1)n2C | -3 | -7 | . | -25 | . | -21 | . | .
O=S(=O)(c1ccc2ccccc2c1)N1CCN(c2ccc(O)cc2)CC1 | 0 | 1 | . | . | . | -16 | . | ?
C=CCn1c(SCC(=O)NC2CCS(=O)(=O)C2)nnc1-c1cc2c(s1)CCC(CC)C2 (stereo not given) | 4 | -5 | -3 | 24 | -12 | . | i | -7
CCc1cccc2c(C(=O)CSc3nncn3-c3ccc(OC)cc3)c[nH]c12 | 3 | 2 | -3 | 7 | 2 | . | i | -6
NS(=O)(=O)c1ccc(NC(=O)C2CCCN(S(=O)(=O)c3ccc(F)cc3)C2)cc1 (stereo not given) | 4 | -2 | -5 | . | -6 | -7 | i | .
Cc1ccc(NC(=O)C(C)OC(=O)Cc2c[nH]c3ccccc23)cc1S(=O)(=O)N1CCOCC1 (stereo not given) | 1 | 0 | . | 5 | . | -6 | i | -8
CSc1nc2nc3c(c(=O)n2[nH]1)CCCC3 | 1 | 5 | -1 | . | -7 | -24 | i | -18
COc1ccc(OC)c(NC(=O)c2ccc3c(c2)C(=O)N(c2ccc(OC(C)=O)cc2)C3=O)c1 | -2 | -5 | 7 | -1 | 0 | -22 | i | -3
(continued)
SMILES | MT1-MMP act inh | MT1-MMP act inh RFP | PABP FP inh | HIV Env fusion | eIF4H inh | Yeast UUG start | Rce1 inh | CSC inhib | others
CC1Cc2cc(/C(O)=C3/C(=O)C(=O)N(CCCN(C)C)C3c3ccncc3)ccc2O1 (stereo not given) | -1 | 2 | 13 | . | -9 | -21 | i | .
C=CCn1c(SCc2cc(=O)n3ccsc3n2)nc2ccccc2c1=O | -7 | 1 | -13 | 20 | -7 | -19 | i | 13
Cc1cc(C(=O)OCC(=O)NCCN2C(=O)CSC2=O)ccc1[N+](=O)[O-] | 0 | 1 | . | . | . | -8 | . | -8
Cc1ccc(OCCNC(=O)/C=C/c2ccccc2)cc1C | 5 | 7 | -6 | 16 | 1 | -14 | i | -10
COc1ccc(C(=O)C[n+]2cccc3cc(OC)ccc32)cc1 | -21 | 1 | 43 | 3 | 72 | -9 | i | -13 | eIF4H inh retest=-9;PABP FP inh retest=26
CCCCc1cc(=O)oc2cc(C)cc(OCC(=O)NCc3ccncc3)c12 | 1 | -7 | -1 | -12 | -7 | -20 | i | -7
CCC12CN(C(=O)c3ccc(OC)cc3)CC(CC)(CN(C(=O)c3ccc(OC)cc3)C1)C2=O | 0 | -1 | -5 | -107 | -4 | -1 | i | .
COc1ccccc1N1CCN(C(c2ccc(N(C)C)cc2)c2nnnn2CCc2ccccc2)CC1 (stereo not given) | 2 | -2 | 11 | -1 | -11 | -3 | i | .
CCOc1ccc(NC(=S)N(CCc2c(C)[nH]c3ccc(C)cc23)Cc2cccnc2)cc1 | -1 | -1 | 10 | -105 | -9 | -10 | i | -4
Cc1c(NC(=O)C(C)OC(=O)c2cccc(S(=O)(=O)N3CCOCC3)c2)c(=O)n(-c2ccccc2)n1C (stereo not given) | . | . | 9 | 15 | -8 | . | i | -4
O=C(c1cccs1)N(Cc1ccco1)Cc1cc2ccccc2[nH]c1=O | 1 | 0 | 6 | -72 | 0 | . | i | -13
COc1cc(C(=S)N2CCCC2)ccc1OCc1ccc(C)cc1 | 4 | -6 | -1 | -29 | -5 | -22 | i | 19
